# SARS PLpro yeast – blocks SARS-CoV papain-like protease in a yeast assay. Potency, µM (doses to about 32.9 µM), for the others: at the top dose activity, positive = growth rescue. S. cerevisiae expressing SARS-CoV PLpro, growth rescue; control for the full effect not named in the record. 0.19% of 330,000 active; active means well fitted rising curve with a large enough effect; inconclusive means small, poorly fitted or top-dose-only effect; inactive means no such curve, though single readings can be large or run the other way; also: 0% is about no effect; nearly all actives have a fitted effect of over 55% in size; growth read by luminescence after 48 h
# LASV entry inh – inhibitors of Lassa virus binding or cell entry. Lassa virus pseudotype entry inhibition, cell reporter; control for the full effect not named in the record. Potency, µM (series often up to 37.9 µM), for the others: top-dose activity change, negative = inhibition, most hits filed as inhibitors. 1.2% of 300,000 active; active means well fitted inhibition curve with a large enough effect; inconclusive means small, poorly fitted or top-dose-only effect, or effect the other way; inactive means flat fitted curve, though single readings scatter; tested in HEK293 cells; also: % is scaled to controls: 0 for no effect and ±100 for the full control effect; nearly all actives have a fitted effect of over 50% in size; luciferase read-out
# Cruzain inh Det – blocks cruzain activity in presence of Triton detergent; P25779; purified cruzain, Z-FR-AMC fluorescence, 0.01% Triton; Potency, µM, without a hit: max response, negative = inhibition, hits mostly inhibitors; 0.43% of 200,000 active; AID 1478;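 also: plate controls were neutral wells for no effect and buffer without enzyme for full effect; nearly all actives have a fitted effect of over 40% in size; top concentration of the series not given in the record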
# Target sequence (P25779 123-467 limits assumed): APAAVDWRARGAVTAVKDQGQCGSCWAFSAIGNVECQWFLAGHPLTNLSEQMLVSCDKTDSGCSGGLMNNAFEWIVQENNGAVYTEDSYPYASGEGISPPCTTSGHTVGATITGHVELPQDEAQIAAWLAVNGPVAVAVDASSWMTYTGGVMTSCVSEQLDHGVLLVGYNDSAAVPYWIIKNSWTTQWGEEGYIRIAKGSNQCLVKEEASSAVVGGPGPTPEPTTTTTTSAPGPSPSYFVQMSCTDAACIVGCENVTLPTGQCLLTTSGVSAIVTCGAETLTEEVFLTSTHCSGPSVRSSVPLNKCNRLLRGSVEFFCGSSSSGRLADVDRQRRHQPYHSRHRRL
#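 Cruzain (1.5 nM) preincubated 15 min at RT with compound in 100 mM sodium acetate pH 5.5, 5 mM DTT, 0.01% Triton X-100. Reaction started with 2 uM Z-FR-AMC; AMC fluorescence (ex 360/em 450 nm) change over 60 s gave rate.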
# 2A StopGo – lowers the luciferase signal of an FMDV 2A StopGo reporter. human cells with a luciferase reporter of 2A StopGo recoding; control for the full effect not named in the record. 1.2% of 410,000 active. AID 1159524. Potency, µM (titrated, usually from 57.9 µM), for the others: at the top dose signal change, negative = less light; active = well fitted falling curve with a large enough effect; inconclusive = small, poorly fitted or top-dose-only effect; inactive = no such curve, though single readings can be large or run the other way; tested in HEK293T cells; also: % is scaled to controls: 0 for no effect and ±100 for the full control effect; nearly all actives have a fitted effect of over 45% in size; luciferase light after 4 h
# MARV entry inh – blocks Marburg virus binding to or entry into cells. Marburg virus pseudotyped entry inhibition, cell reporter; control for the full effect not named in the record; about a third of the inactives were read at about 46 µM. Potency, µM (doses to about 37.8 µM), for the others: at the top dose activity change, negative = inhibition, actives largely listed as inhibitors. 1.8% of 300,000 active; active = well fitted inhibition curve with a large enough effect; inconclusive = small, poorly fitted or top-dose-only effect, or effect the other way; inactive = flat fitted curve, though single readings scatter; tested in HEK293 cells; about a fifth of its hits are not listed in these tables; also: % is scaled to controls: 0 for no effect and ±100 for the full control effect; luciferase read-out
# NS1 inh – influenza NS1 inhibition; S. cerevisiae slowed by influenza A NS1, growth recovery by OD600; Potency, µM (highest dose often 46.1 µM), for inactives: at the top dose activity, positive = more growth; 0.4% of 270,000 active; AID 2326; active means well fitted rising curve with a large enough effect; inconclusive means small, poorly fitted or top-dose-only effect; inactive means no such curve, though single readings can be large or run the other way; also: nearly all actives have a fitted effect of over 50% in size
#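 Growth recovery, yeast-based: influenza A NS1 expressed in S. cerevisiae causes slow growth, and suppressors are detected by OD600. The parent strain without NS1 is used as positive control.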
# Cruzain noTriton – cruzain (T. cruzi) inhibition without detergent; purified cruzain, Z-FR-AMC fluorescence, no detergent; Potency, µM, without a hit: max response, negative = inhibition, hits mostly inhibitors; P25779; 2.3% of 200,000 active;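 also: plate controls were enzyme without inhibitor for no effect and buffer without enzyme for full effect; nearly all actives have a fitted effect of over 40% in size; top concentration of the series not given in the record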
#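 Detergent-free condition (0.00005% Triton X-100) in acetate buffer pH 5.5 with DTT. 1.5 nM enzyme and compound were pre-mixed 15 min, then 2 uM Z-FR-AMC substrate added; reaction progress from fluorescence change between first and third reads (60 s).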
# RE007 growth inh – less growth of the S. pombe RE007 Vpr strain | AID 651644 | Potency, µM (series often up to 92.2 µM), for the others: top-dose activity change, negative = less growth | 0.21% of 360,000 active | S. pombe RE007 Vpr strain, BacTiter-Glo ATP luminescence, 24 h; control for the full effect not named in the record; active = well fitted falling curve with a large enough effect; inconclusive = small, poorly fitted or top-dose-only effect; inactive = no such curve, though single readings can be large or run the other way;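 also: % is scaled to controls: 0 for no effect and ±100 for the full control effect; nearly all actives have a fitted effect of over 50% in size; the assay follows cell death caused by Vpr and the record does not say whether a fall means rescue or toxicity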
#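 Fission yeast RE007 carrying one integrated HIV-1 vpr copy, seeded at OD 0.01 in PMG+AL medium with 23 nL pinned compound. Grown 24 h at 30 degrees; viability read by BacTiter-Glo luminescence after 5 min.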
# Starred values were filed as active, the others as inactive; u = inconclusive; x = no result given; [ ] = another dose, or the depositor's remark. Unless noted, calls follow the shape of the dose curve; as a rule, active = well fitted curve in the direction sought with a large enough effect; inconclusive = small, poorly fitted or top-dose-only effect, or another doubt; inactive = no such curve, though single readings can be large; an effect the other way counts as inactive or inconclusive. Potency is read from the fitted curve at half-maximal effect. Outcome played no part in choosing rows. Share with any hit: about 4.6%.
No.	SMILES	SARS PLpro yeast	LASV entry inh	Cruzain inh Det	2A StopGo	MARV entry inh	NS1 inh	Cruzain noTriton	RE007 growth inh
1	CCOC(=O)N1CCN(C(=O)CSc2nc3c(cnn3-c3ccccc3)c(=O)[nH]2)CC1	13.9%	x	0.1%	-25.7%	x	-6.3%	2.6%	-4.9%
2	COc1cc(CCC(=O)Nc2c(C(=O)N3CCN(c4ccccc4)CC3)oc3ccccc23)on1	-26.5%	u	x	31.2%[activator]	-13.0%[46.1 µM]	-20.9%	x	14.1%
3	CCOC(=O)CSc1nc2cccnc2n1C	0.7%	13.4%	x	15.9%	1.7%[46.1 µM]	-6.1%	x	0.0%
4	Cc1ccc2c(cnn2C(=O)CCC(=O)NCc2cccc(Br)c2)c1	-8.3%	x	x	-24.2%	x	-20.7%	x	-2.5%
5	COc1ccc(C2CCCN2C(=O)Nc2ccc(Cl)cc2)cc1OC (stereo not given)	-5.0%	x	-3.1%	-8.2%	x	-87.8%	-5.2%	-5.5%
6	Cc1ccc(C)c(N2CCN(C(=O)CCS(=O)(=O)c3ccc4c(c3)CC(=O)N4C)CC2)c1	x	-1.6%[46.1 µM]	-3.5%	-0.9%	x	x	u	x
7	COc1cc2c(cc1OC)-c1cc(Nc3ccc(C)cc3)nc(=O)n1CC2	0.3%	x	x	-13.1%	x	2.7%	x	19.8%
8	CC(C)Oc1ccc(NC(=O)Oc2ccccc2)cc1	-6.3%	22.2%	3.8%	35.8%[activator]	-2.2%	-11.9%	3.3%	-3.6%
9	COc1cc(C(CC(=O)NCCC(C)C)N2Cc3ccccc3C2=O)cc(OC)c1OC (stereo not given)	x	8.7%[46.1 µM]	0.2%	14.2%	x	x	2.6%	x
10	CC(=O)c1ccc(N(CC(=O)NCC2CCCO2)C(=O)CCC(=O)Nc2cc(C)on2)cc1 (stereo not given)	5.3%	6.3%	x	-9.3%	-15.7%[46.1 µM]	6.9%	x	16.2%
11	NC(=O)N/N=C/c1cn(CC(=O)Nc2ccc(F)cc2)c2ccccc12	-0.4%	-3.9%	x	-0.7%	17.9%[46.1 µM]	3.2%	x	5.3%
12	CC(=O)Nc1ccc(C(=O)OCCc2ccccc2)cc1	-15.8%	14.1%[46.1 µM]	x	26.0%	2.0%[46.1 µM]	-166.0%	x	-5.6%
13	CCN(CC)CCCNC(=S)N(Cc1cccnc1)Cc1cc2cc(C)cc(C)c2[nH]c1=O	-1.9%	7.2%[46.1 µM]	x	-16.0%	u	-3.5%	x	-7.9%
14	Cc1cc(C)n2nc(-c3ccc(Cl)cc3)cc2n1	-2.0%	x	x	69.4%[activator]	x	-8.2%	x	-3.6%
15	COc1ccc(NC(=S)Nc2ccc(Oc3ccccc3)cc2)cc1	0.9%	-22.3%	3.7%	-4.8%	u	0.5%	-14.8%	4.3%
16	N/C(=N\N=C\c1ccc(O)cc1)c1nonc1N	1.2%	u	x	-6.6%	20.6µM*	x	x	-3.4%
17	CN1CCN(CC(=O)Nc2c(C#N)cnn2-c2ccccc2)CC1	1.6%	-16.9%[46.1 µM]	x	-11.5%	1.6%[46.1 µM]	0.6%	x	22.2%
18	Cc1ccccc1OCC(=O)NCCNC(=O)c1ccncc1	2.5%	u	x	-0.7%	-11.8%[46.1 µM]	-0.1%	x	-11.7%
19	CN(C)c1ccc(NC(=O)c2cccc(C(=O)Nc3ccc(N(C)C)cc3)n2)cc1	-0.3%	u	-14.0%	u	u	15.9%	5.4%	-12.7%
20	O=C(Cc1cccc(C(F)(F)F)c1)NCc1cccc(Cl)c1	-23.6%	-13.0%	-8.5%	0.0%	16.6%	-3.5%	-1.6%	6.2%
21	O=C(Cn1c(=O)c2cccn2c2cccnc21)NCc1ccccc1F	x	0.2%[46.1 µM]	-3.8%	-0.1%	x	x	8.2%	x
22	COc1cc(CN2CCC(n3nccc3NC(=O)C3CCOC3)CC2)ccc1F (stereo not given)	5.3%	-7.5%	x	-2.3%	27.9%	9.9%	x	5.9%
23	O=C(N/N=C/c1c[nH]c2ccccc12)c1ccccc1Cl	-2.3%	13.4%	x	36.9%[activator]	13.0%	3.6%	x	-9.0%
24	Cn1c(O)c(N=NC(=O)c2cccc(S(=O)(=O)N3CCCCC3)c2)c2ccccc21	-3.1%	u	-3.7%	-11.4%	u	19.1%	8.2%	-7.9%
25	C[C@H](NC(=O)[C@@H]1CSC2c3ccccc3C(=O)N21)C(=O)NCCc1ccccc1 (stereo not given in full)	18.7%	x	x	54.0%[activator]	x	-6.9%	x	3.1%

No.	SMILES	SARS PLpro yeast	LASV entry inh	Cruzain inh Det	2A StopGo	MARV entry inh	NS1 inh	Cruzain noTriton	RE007 growth inh
26	COc1ccc(C(=O)O/N=C(\N)c2ccccc2)cc1OC	-4.3%	u	x	0.0%	u	-33.1%	x	3.7%
27	COc1ccc(-c2[nH]ncc2CN2CCCO2)cc1F	1.1%	17.2%[46.1 µM]	x	3.5%	6.8%[46.1 µM]	-1.8%	x	-3.2%
28	Cc1occc1C(=O)N/N=C/C1=C(N2CCOCC2)C(=C\c2ccc(Cl)cc2)/CC1	-2.4%	x	-5.4%	-8.8%	-6.6%	13.6%	-12.5%	-10.4%
29	Cc1c(C(=O)N2CCN(c3ccc([N+](=O)[O-])cc3)CC2)sc2ncn(CC(=O)N3CCOCC3)c(=O)c12	5.5%	-0.1%[46.1 µM]	x	-16.1%	u	-2.9%	x	2.9%
30	O=C(Cn1ncc2c3ccccc3n(Cc3cccc(Cl)c3)c2c1=O)NCC1CCCO1 (stereo not given)	5.3%	-16.0%	x	-9.9%	-0.9%[46.1 µM]	19.5%	x	8.5%
31	O=C(CNc1cccc([N+](=O)[O-])c1)NCCCc1ccccc1	-5.2%	u	x	0.8%	-2.1%[46.1 µM]	-18.5%	x	19.2%
32	N#Cc1c(/N=C/C2C(=O)NC(=S)NC2=O)sc2c1CCCC2	-0.5%	17.2%[46.1 µM]	x	17.2%	6.1%[46.1 µM]	x	x	-19.1%
33	Cc1ccc(C23CC4CC(CC(NC(=O)N5CCN(C)CC5)(C4)C2)C3)cc1	1.4%	u	-3.8%	-29.5%	u	0.1%	11.1%	12.6µM*
34	CCOC(=O)[C@H](O)[C@@H](O)c1cccc([C@H](O)[C@@H](O)C(=O)OCC)c1	3.8%	x	x	-5.1%	x	6.4%	x	-1.9%
35	CC(C)(C)NC(=O)c1cc(NC(=O)c2cccs2)cc(NC(=O)c2cccs2)c1	-0.3%	-21.9%[46.1 µM]	x	-7.4%	u	-27.0%	x	-2.7%
36	O=C(Cn1cnc2ccccc2c1=O)c1ccc(Cl)cc1	-0.1%	x	x	65.5%[activator]	x	-46.9%	x	-10.3%
37	NC(=O)c1ccsc1NC(=O)COC(=O)Cc1n[nH]c(=O)c2ccccc12	6.5%	u	x	-23.0%	7.3%	x	x	14.1%
38	CC(C)(C)OC(=O)N[C@@H](Cc1ccccc1)c1nnc(S(=O)(=O)Cc2cccc(F)c2)o1	-43.7%	u	12.6µM*	u	u	-164.9%	20µM*	u
39	Cc1n[nH]c2c([N+](=O)[O-])c(=O)[nH]c(=O)n12	x	16.9%	x	2.0%	u	x	x	0.1%
40	Cc1cccc(C2C3=C(Nc4[nH]n(-c5ccccc5)c(=O)c42)c2ccccc2C3=O)c1 (stereo not given)	6.5%	5.3%	-23.8%	-20.0%	4.7%	u	u	0.4%
41	O=c1[nH]c(O)c(/C=C2\C=NN=C2c2ccccc2)c(=O)[nH]1	0.2%	5.2%	2.5%	14.7%	-2.0%	12.6%	8.6%	10.7%
42	CC1(C)Cc2c(cnn2-c2cccc(F)c2)C(NC(=O)CCN2CCCC2=O)C1 (stereo not given)	-2.3%	u	x	2.0%	24.2%	-6.6%	x	21.9%
43	COc1ccc(OCc2nnc(SCC(=O)NCc3ccco3)o2)cc1	2.4%	12.6%	2.4%	-10.8%	16.4%	-5.3%	7.4%	-4.3%
44	C=CCNC(=O)c1ccc(NC(=O)CC2SC(N3CCCC3)=NC2=O)cc1 (stereo not given)	3.4%	-4.1%	x	-4.9%	23.9%	x	x	7.8%
45	CC(C)CNc1nc(Oc2ccc(=O)n(-c3ccccc3)n2)nc(N2CCOCC2)n1	-0.8%	-9.6%	4.6%	-26.8%	-11.7%	2.2%	16.7%	-2.4%
46	Cn1cc(-c2nnnn2-c2ccc(Cl)cc2)c(=O)c2ccccc21	-5.7%	-15.2%	1.8%	18.1%	u	-1.8%	0.5%	-7.5%
47	Cc1ccc(-c2nc(CS(=O)CC(=O)NCCC(C)C)c(C)o2)cc1 (stereo not given)	1.0%	x	-0.1%	38.3%[activator]	x	u	5.2%	-3.0%
48	Cc1ncc(S(=O)(=O)c2ccc(Cl)cc2)c(N)n1	x	9.8%	x	-12.5%	-17.0%	x	x	-11.5%
49	CCOc1ccc2c(c1)-c1c(ssc1=S)C(C)(C)N2C(=O)CSC1=NCCS1	5.5%	u	-6.5%	-24.7%	u	u	15.8µM*	-28.0%
50	CCCc1nc(NC(C)=O)c(C#N)c(-c2ccco2)c1CC	-0.9%	1.8%	-2.7%	-2.4%	0.3%	0.5%	11.1%	0.9%
51	CC(=O)Nc1ccc(S(=O)(=O)NCCC(=O)N2CCN(C(c3ccccc3)c3ccccc3)CC2)cc1	-5.6%	0.316µM*	x	u	5.4%	x	x	-12.0%

# Structural class: the entries above containing two or more sulfur atoms (three)
No.	SMILES	SARS PLpro yeast	LASV entry inh	Cruzain inh Det	2A StopGo	MARV entry inh	NS1 inh	Cruzain noTriton	RE007 growth inh
32	N#Cc1c(/N=C/C2C(=O)NC(=S)NC2=O)sc2c1CCCC2	-0.5%	17.2%[46.1 µM]	x	17.2%	6.1%[46.1 µM]	x	x	-19.1%
35	CC(C)(C)NC(=O)c1cc(NC(=O)c2cccs2)cc(NC(=O)c2cccs2)c1	-0.3%	-21.9%[46.1 µM]	x	-7.4%	u	-27.0%	x	-2.7%
49	CCOc1ccc2c(c1)-c1c(ssc1=S)C(C)(C)N2C(=O)CSC1=NCCS1	5.5%	u	-6.5%	-24.7%	u	u	15.8µM*	-28.0%

# Compound activity as filed in PubChem BioAssay.
